# From PubChem
# Sa RN4220 lethal: growth inhibition of S. aureus RN4220, primary screen, OD600. 16 h. 330,000 tested, 0.33% active. inhibition, % (no concentration beside the values). AID 1259311, 2017;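 active means z-score of -3 or lower and OD600 up to 0.18 on both plates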;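 further: plate controls were untreated cells for no effect and reference antibiotic for full effect; stock transfer was 100 nL into about 80 µL; one replicate is shown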
# PrP 5UTR inh: inhibition of PrP 5' UTR reporter expression | cell-based PrP 5' UTR mRNA reporter, plate reader | inhibition, % (no concentration beside the values) | 340,000 tested, 0.35% active | AID 488862, 2010;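 active means every replicate at 50% or more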;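 further: 0 = median of the neutral control wells; tested in H4 reporter cells; numbers are from one replicate; inactives centre near -14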
# ugtP null kill: growth inhibition of ugtP-null S. aureus, primary screen, RN4220 ugtP deletion, OD600. 16 h; some inactives read as strong as hits. growth inhibition, % (concentration not given with the values). 330,000 tested, 0.54% active. AID 1259309, 2017;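 active means z-score under -3 and OD600 up to 0.15 on both plates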;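 further: plate controls were untreated wells for no effect and antibiotic for full effect; wells of about 80 µL received 100 nL stock; the first replicate is given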
# Autofluor counter: compound fluorescence in toxin protease inhibitor counterscreen | compound autofluorescence counterscreen, microsphere flow cytometry; active compounds read high | fluorescence intensity (concentration not given with the values) | 360,000 tested, 3.1% active | AID 624483;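 active means at least 3 SD above the mean of all compounds, about 16000 in these data; inconclusive means too few beads counted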;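 further: 100 nL of 1 mM stock went into each well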
# BJeLR lethal: MLPCN primary cell-based screen for lethality selective to Ras in HRASV12 cells. BJeLR (HRASV12) viability, CellTiter-Glo ATP luminescence, 48 h; reference of the scale not given here. inhibition, % (no concentration beside the values). 300,000 tested, 0.17% active. AID 1554, 2009;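 active means replicate mean above 50%; inconclusive means above 50% but judged a plate artefact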;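 further: 50 nL library stock added to about 25 µL; numbers are from one replicate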
# Mtb hypoxia rep: PubChem AID 1159583 | M. tuberculosis hypoxia-regulated fluorescent reporter, fluorescence | fluorescence inhibition, % (concentration not given with the values) | 300,000 tested, 0.1% active;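 active means 35 to 45% if threefold the growth effect, above 45% if 1.5-fold the growth effect; inactive means the rest, general growth blockers included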;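 further: wells of about 50 µL received 100 nL stock; 0% = vehicle wells and 100% = reference inhibitor wells; whole bacteria with a GFP reporter of the hypoxia response; strong numbers were not always called active; many hits fall short of the cut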
# Mtb hypoxia rep growth: second read-out of Mtb hypoxia rep, no call of its own (marks repeat the call); growth inhibition, %; measured here: M. tuberculosis growth (absorbance);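 0% = vehicle and 100% = reference antibiotic; read after six days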
# Numbers without * were called inactive; ? = inconclusive; / = no result given.
smiles	Sa RN4220 lethal	PrP 5UTR inh	ugtP null kill	Autofluor counter	BJeLR lethal	Mtb hypoxia rep	Mtb hypoxia rep growth
COc1cc(NC=C2CC(=O)NC(C)=C2C#N)cc(OC)c1OC	4.6	/	-2.0	/	/	6.3	4.0
CCCCN(CC)C(=O)CSc1nc2c(sc(=S)n2-c2ccc(OCC)cc2)c(=O)[nH]1	6.6	-29.6	15.3	4231	4.0	3.9	4.2
CCOc1cc(NC(=S)NCCCN2CCOCC2)c(OCC)cc1NC(=O)c1ccccc1C	3.8	-7.7	3.7	2597	2.0	10.3	2.0
CCOc1ccc(-c2cc(C(=O)NN=Cc3ccc(O)cc3)c3ccccc3n2)cc1	-8.2	/	14.7	/	/	13.0	3.1
O=[N+]([O-])c1ccc(N2CCN(c3ccccc3)CC2)nc1	2.5	-9.6	1.0	2782	1.4	1.6	1.8
Cn1c(N)c(C(=O)Nc2ccccc2)c(=O)[nH]c1=O	-10.3	/	-4.1	/	4.3	12.6	4.7
CCOC(=O)CN1C(=O)N[C@@H](c2cccc(F)c2)C(C(C)=O)=C1C	/	-13.9	/	3354	3.0	/	/
Cc1cccc(N(C(=O)c2snc(C(N)=O)c2N)C(C(=O)NCC2CCCO2)c2cccs2)c1 (configuration not stated)	7.4	-20.4	9.2	3586	4.3	1.6	9.8
CC(=O)N1CCc2c(sc(NC(=O)CS(=O)(=O)c3ccc(F)cc3)c2C#N)C1	2.2	-15.6	-3.0	?	-5.3	6.4	4.4
COc1ccc(Br)cc1/C=N/NC(=O)c1ccc(COc2ccc3c(c2)CCC3)o1	/	-20.3	/	4585	2.4	/	/
CCOC(=O)C1(C(=O)OCC)NC(=O)CC1CC(C)C (configuration not stated)	4.7	-18.2	0.6	3364	/	8.8	6.6
O=S(=O)(/C=C/c1ccccc1)N1CCN(Cc2ccccc2)CC1	/	-16.3	/	3350	-0.8	/	/
O=C(NCc1cccs1)c1cc(S(=O)(=O)N2CCOCC2)ccc1N1CCCC1	3.7	-18.0	5.1	3854	/	21.0	9.4
CCn1cc(C(=O)NC(C)C2CC3CCC2C3)cn1 (configuration not stated)	2.6	-81.1	-0.2	2535	-16.4	/	/
COCCCn1c(SCC(=O)NC2CCS(=O)(=O)C2)nnc1-c1ccc(Cl)cc1 (configuration not stated)	-0.3	-15.7	1.1	/	/	1.9	-2.3
O=C(Cc1ccccc1)NCc1n[nH]c(=S)n1-c1ccc(Br)cc1	3.2	-23.7	7.8	4540	-8.0	0.6	8.7
Cc1ccc(NC(=O)c2ccc(OC(=O)c3ccco3)cc2)cc1	4.4	-99.3	12.4	6605	13.7	1.5	3.2
O=C(c1cc(S(=O)(=O)N2CCOCC2)ccc1F)N1CCN(Cc2ccccc2)CC1	1.3	-12.6	1.8	11084	0.7	1.6	11.5
COc1ccc(CNC(=O)C[C@H]2C(=O)N(Cc3ccccc3)C[C@@H]2Cc2ccccc2)cc1	/	-11.0	/	4132	4.4	/	/
S=C1SCN(CC2CC2)CN1CC1CC1	3.0	-13.9	13.6	3822	1.0	10.5	11.6
COc1ccc(S(=O)(=O)N2CCC(C(=O)NCC3CCCO3)CC2)cc1Cl (configuration not stated)	-0.5	-3.4	12.9	4246	-0.1	0.0	5.1
CC(=O)c1ccc(NC(=O)N[C@@H](Cc2ccccc2)C(=O)O)cc1	1.6	-7.6	2.2	9220	-4.1	-1.9	-2.5
COc1ccc(C2/C=C\CN(C(=O)Nc3ccccc3)CC(=O)N2Cc2ccc(F)cc2)cc1 (configuration not stated)	/	-17.7	/	3047	3.0	/	/
Cc1ccc(NC(=O)CSc2ccc3c(c2)OCCO3)c(O)c1	4.8	-2.5	5.2	5989	7.4	5.7	-3.9
Cc1nn(Cc2ccc(F)cc2)c(C)c1NC(=O)c1cnn2c1NC(c1ccccc1)CC2C(F)(F)F (configuration not stated)	2.5	4.2	3.8	11817	2.1	-1.1	-3.1
CCOC(=O)N1CCC(NC(=O)c2cc(C(=O)NCC(OC)OC)ccc2CO)CC1	5.8	-23.4	4.8	3869	-6.1	12.0	19.0
CC(=NNC(=O)C1CC1(c1ccccc1)c1ccccc1)c1cccc([N+](=O)[O-])c1 (configuration not stated)	0.4	/	1.0	/	/	5.0	-0.3
Cc1ccsc1C1C(C#N)=C(N)Oc2n[nH]c(C)c21 (configuration not stated)	6.5	-24.3	4.1	5294	-10.3	10.5	10.3
Cc1cc2nc(C3CCCN(C(=S)Nc4ccccc4C)C3)[nH]c2cc1C (configuration not stated)	-6.9	8.8	-17.5	7688	5.8	1.6	2.2
Nc1nonc1C(=O)N/N=C/c1ccc(-c2ccc(Cl)c(C(=O)O)c2)o1	/	-20.3	/	2243	-10.4	/	/

# (cont.)
smiles	Sa RN4220 lethal	PrP 5UTR inh	ugtP null kill	Autofluor counter	BJeLR lethal	Mtb hypoxia rep	Mtb hypoxia rep growth
CSCc1c(C(=O)Nc2ccc3c(c2)OCO3)oc2ccccc12	2.7	-29.6	0.4	5492	3.5	6.8	9.1
O=C(Cc1ccc([N+](=O)[O-])cc1)N/N=C/c1cccs1	/	3.7	/	5808	2.0	/	/
COc1ccc(C2N(c3ccc(OC)cc3)C(=S)N3CCCN23)cc1 (configuration not stated)	3.5	-4.3	-1.6	2625	5.8	-2.9	-0.8
COc1ccc(NC(=S)NC(NC(=O)c2cccc(Cl)c2)C(Cl)(Cl)Cl)c([N+](=O)[O-])c1 (configuration not stated)	-7.9	-20.1	-35.6	13132	-2.5	11.9	2.2
O=C(c1ccccc1)C(Cn1cncn1)C(Sc1ccccc1)c1ccccc1 (configuration not stated)	2.1	-20.9	4.7	3226	4.1	-6.9	5.3
CCCCCCn1c(COc2ccccc2F)nnc1SCC(=O)N1c2ccccc2NC(=O)C1(C)C	8.7	5.7	-33.8	15058	-7.6	2.6	7.3
CCOc1ccc2[nH]c(=O)c(CN(CCO)C(=O)CC)cc2c1	3.2	-16.6	4.8	3318	-4.3	13.0	13.7
CC(C)(C)C(=O)COC(=O)c1cccc(NC(=O)c2ccco2)c1	6.4	-20.4	-2.8	23138*	-2.8	12.7	8.1
CCOCCCN(CC(=O)NC1CCCC1)C(=O)C(=O)Nc1ccc2c(c1)OCCO2	1.8	-10.2	1.9	3581	1.1	10.7	1.6
Cc1cccnc1NC(=O)c1ccc(C(=O)c2ccccc2)cc1	3.4	-7.5	5.2	5652	6.7	9.3	-0.4
Cc1cc(C)n2nc(SCC(=O)N(C)C)nc2n1	3.5	-16.3	-9.1	5607	-1.7	/	/
O=C(COC(=O)C1CC1)Nc1ccccc1Sc1ccccc1	7.4	-23.9	11.0	2493	-4.3	7.3	-2.4
Cc1n[nH]c(C)c1S(=O)(=O)N1CCc2ccccc2C1	-1.7	0.4	2.4	6401	6.8	1.6	-3.2
C=CCn1c(CCCOc2ccc(Cl)cc2Cl)nnc1SCC(=O)Nc1nccs1	1.5	-13.8	-4.4	4346	1.3	/	/
CCCCOc1ccc(-c2ncc(N)cn2)cc1	-2.8	-47.6	15.8	3821	0.5	-4.7	-4.5
O=C(NCc1cccc(C(F)(F)F)c1)C1CCCN(c2ncccn2)C1 (configuration not stated)	2.4	-15.9	3.6	22625*	13.7	13.0	4.3
CN(C)c1ccc(S(=O)(=O)N2CCCCC2)cc1NC(=O)COc1ccccc1F	9.1	-15.8	0.5	5229	-6.6	-2.4	-5.0
COc1ccc(-n2nc3c(N4CCC(C(=O)NCc5ccco5)CC4)nnc(C)c3c2C)cc1	-1.3	-7.8	-0.9	5669	6.1	-6.8	9.8
Cc1ccc(N=Cc2cccc(O)c2O)c(C)c1	-0.1	-14.3	-7.7	?	-4.0	-0.7	-7.9
CC(=O)NCCn1c(SCC(=O)NCCc2ccc(S(N)(=O)=O)cc2)nc2ccccc2c1=O	0.6	-6.1	1.7	4193	1.1	-1.9	-5.0
COc1ccc2ccccc2c1C=NO	3.0	/	5.4	/	/	17.6	17.2
CC1CCCCC1NCC(=O)Nc1ccccc1C(=O)Nc1ccccc1 (configuration not stated)	4.8	-9.0	2.4	2987	/	2.7	1.5
COc1ccc(NC(=O)c2ccc3c(c2)OCO3)cc1Cl	7.3	-95.9	1.6	4781	-0.6	12.9	14.8
C=CCn1c(-c2ccoc2)n[nH]c1=S	2.6	17.7	3.9	2423	-10.0	/	/
CCN(CC(=O)Nc1ccccc1OC)C(=O)CN1C(=O)NC(C)(c2ccccc2)C1=O (configuration not stated)	4.0	-16.7	6.9	3034	/	16.3	5.3
Cc1cccc(CSc2nnc(-c3ccco3)o2)c1	2.2	-13.4	-10.7	4546	-2.8	15.9	12.5
O=S1(=O)N=C(N(CCO)/N=C/c2ccccc2F)c2ccccc21	/	-20.7	/	3552	-0.2	/	/
C=CCNC(=O)/C(C#N)=C/c1cn(-c2ccccc2)nc1-c1ccc(OC)c([N+](=O)[O-])c1	9.1	-13.0	-13.9	10849	2.0	6.3	3.8
Cc1sc2ncn(CC(=O)NCCCC(=O)NCc3ccc(F)cc3)c(=O)c2c1C	2.8	-8.1	0.2	4354	-11.1	-6.8	-11.3
Cc1csc(=O)n1CC(=O)OCC(=O)Nc1ccc(C(N)=O)cc1	3.6	5.0	1.9	?	/	-6.0	0.2

# The closing two compounds of the section above come first, to join the parts.
smiles	Sa RN4220 lethal	PrP 5UTR inh	ugtP null kill	Autofluor counter	BJeLR lethal	Mtb hypoxia rep	Mtb hypoxia rep growth
Cc1sc2ncn(CC(=O)NCCCC(=O)NCc3ccc(F)cc3)c(=O)c2c1C	2.8	-8.1	0.2	4354	-11.1	-6.8	-11.3
Cc1csc(=O)n1CC(=O)OCC(=O)Nc1ccc(C(N)=O)cc1	3.6	5.0	1.9	?	/	-6.0	0.2
N#CCCN(C(=O)c1ccc2c(=O)n3c(nc2c1)CCCCC3)c1ccccc1	5.4	-18.8	-6.4	6470	-5.7	-1.8	3.8
COc1cccc(CNC(=O)N2CCN(c3ccccc3Cl)CC2)c1	-6.2	-17.8	10.4	3565	-12.8	4.6	0.2
Cc1cc[n+](-c2[nH]c(=O)sc2/C=N/N=C(\[O-])c2ccccc2)cc1C	/	-20.7	/	4256	-1.7	/	/
CCC(C)NC(=O)c1ccc([N+](=O)[O-])c(Cl)c1 (configuration not stated)	6.1	-22.0	14.5	10774	6.6	16.2	15.2
O=C(N/C(=C\c1ccc(F)cc1)C(=O)N1CCCCCC1)c1ccccc1	1.2	-31.2	1.7	4421	/	7.6	7.6
O=C(NN=Cc1ccco1)c1cccc(N2CCCC2=O)c1	2.5	/	2.1	/	/	7.8	-1.2
CCc1ccccc1NC(=O)CCc1nc(-c2ccc(C)cc2)no1	-1.8	-16.1	1.1	2656	15.5	/	/
CCOC(=O)c1c(C)[nH]c(N=Nc2ccc(C)cc2C)c1C	-0.1	-58.2	8.4	3313	3.3	/	/
CC(=NNC(=O)c1cc(C(C)(C)C)[nH]n1)C12CC3CC(CC(C3)C1)C2	-2.4	/	6.1	/	/	11.7	-3.5
COc1ccccc1NC(=O)c1cnc(SCC(=O)NCCc2ccccc2)n(C)c1=O	-5.3	-23.9	-2.1	7146	9.2	-2.0	4.4
CCC(C(=O)Nc1ncn[nH]1)(C(F)(F)F)C(F)(F)F	2.6	-9.4	2.5	3369	7.5	-86.3	-23.5
CC1(C)COC(c2cc([N+](=O)[O-])ccc2Cl)=N1	2.8	-15.4	-3.8	5192	4.5	/	/
COc1ccc(C2CC(=O)C=C(c3cc(C=O)ccc3OC)C2)cc1OC (configuration not stated)	10.0	/	5.0	/	/	7.2	8.5
COc1ccc(-c2noc(CCC(=O)Nc3cccnc3)n2)cc1	-2.4	-0.9	3.7	4213	7.7	7.3	11.8
CSc1ncnc2ncn(C)c12	8.1	-29.4	1.4	4743	/	13.4	5.7

# 2 of the compounds above, with values under each structure.
# Values in the order: Sa RN4220 lethal | PrP 5UTR inh | ugtP null kill | Autofluor counter | BJeLR lethal | Mtb hypoxia rep | Mtb hypoxia rep growth
CCC(C(=O)Nc1ncn[nH]1)(C(F)(F)F)C(F)(F)F
→ 2.6 | -9.4 | 2.5 | 3369 | 7.5 | -86.3 | -23.5
CC1(C)COC(c2cc([N+](=O)[O-])ccc2Cl)=N1
→ 2.8 | -15.4 | -3.8 | 5192 | 4.5 | / | /
